Screens as filed in PubChem.
KCNQ2 inh: KCNQ2 potassium channel inhibitors, primary screen, cell-based, CHO-K1, FluxOR thallium flux, B-score (AID 2156); O88943; 20 min; stronger effect = lower value; only compounds with negative scores are shown here; some inactives read as strong as hits; B-score at 10 µM; 1.1% of 310,000 active;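 active = fluorescence ratio B-score at most minus 3 library SDs, with starting brightness B-score within 2 library SDs, cut at about -5.5 in these data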
Target sequence (O88943 whole entry, looked up): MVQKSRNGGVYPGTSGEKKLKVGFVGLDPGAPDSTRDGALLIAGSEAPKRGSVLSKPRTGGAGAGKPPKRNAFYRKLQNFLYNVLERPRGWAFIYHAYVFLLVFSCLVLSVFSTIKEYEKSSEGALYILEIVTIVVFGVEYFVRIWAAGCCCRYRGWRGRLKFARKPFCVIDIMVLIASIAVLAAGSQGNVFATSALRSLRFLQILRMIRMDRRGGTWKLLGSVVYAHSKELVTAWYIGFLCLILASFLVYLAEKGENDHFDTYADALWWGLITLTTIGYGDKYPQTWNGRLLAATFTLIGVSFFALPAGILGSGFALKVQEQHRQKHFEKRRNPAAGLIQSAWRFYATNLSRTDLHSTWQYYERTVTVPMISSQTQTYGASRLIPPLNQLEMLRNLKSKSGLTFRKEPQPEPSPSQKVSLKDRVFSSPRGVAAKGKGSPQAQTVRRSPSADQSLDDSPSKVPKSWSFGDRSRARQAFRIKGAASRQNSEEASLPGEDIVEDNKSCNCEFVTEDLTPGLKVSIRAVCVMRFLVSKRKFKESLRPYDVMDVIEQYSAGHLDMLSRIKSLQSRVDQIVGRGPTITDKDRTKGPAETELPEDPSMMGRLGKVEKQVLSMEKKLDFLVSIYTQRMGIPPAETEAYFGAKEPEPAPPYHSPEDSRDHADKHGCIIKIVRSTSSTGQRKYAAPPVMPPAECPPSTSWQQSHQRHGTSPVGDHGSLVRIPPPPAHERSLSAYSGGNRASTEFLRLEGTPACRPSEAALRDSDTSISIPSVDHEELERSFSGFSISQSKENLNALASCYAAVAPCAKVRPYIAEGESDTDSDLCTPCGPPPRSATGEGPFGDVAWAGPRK
KCNQ2 inh baseline: recorded beside KCNQ2 inh, whose call it bears; B-score; measured here: initial fluorescence intensity artifact check;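 brightness before thallium and not channel activity; 0 = typical well and far values either way flag optical interference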
* marks the source's active call; other numbers are inactive results; i = inactive. Some of the compounds tested; the hit share may differ from the screen's.

Start of the listing, in advance:
KCNQ2 inh | KCNQ2 inh baseline | Compound
i | 1.4 | Cc1cc(Cl)c2ccccc2n1
i | 1.4 | O=C(COc1ncnc2ccccc12)NCc1ccco1
i | -1.6 | Cc1ccc(CN=c2c([N+](=O)[O-])nn(-c3ccc(Cl)cc3)n2O)cc1
i | 0.38 | Cc1c(/C=C2\NC(=O)NC2=O)c2ccccc2n1C

The whole of this part (from the top)
KCNQ2 inh | KCNQ2 inh baseline | Compound
i | 1.4 | Cc1cc(Cl)c2ccccc2n1
i | 1.4 | O=C(COc1ncnc2ccccc12)NCc1ccco1
i | -1.6 | Cc1ccc(CN=c2c([N+](=O)[O-])nn(-c3ccc(Cl)cc3)n2O)cc1
i | 0.38 | Cc1c(/C=C2\NC(=O)NC2=O)c2ccccc2n1C
i | 0.4 | CNc1ccc(S(=O)(=O)NCC(=O)OCC(=O)Nc2cccc(Cl)c2Cl)cc1[N+](=O)[O-]
i | 0.83 | CCOc1cc(C2C(C(=O)OC)=CN(C3CCCC3)C=C2C(=O)OC)cc(Br)c1O
i | -0.77 | CCN1C(=O)[C@H]2[C@@H](c3ccc(-c4ccc(F)cc4)c(OC)c3)N[C@@](CC(C)C)(C(=O)OC)[C@H]2C1=O
i | -1.7 | CCOc1ccccc1N1CC(C(=O)N2CCc3ccccc32)CC1=O (stereo not drawn)
i | -0.23 | Cc1ccc(N(CC(=O)NC2CCCCC2C)S(=O)(=O)c2c(C)nn(C)c2C)cc1 (stereo not drawn)
i | 1.6 | CCOC(=O)C1=C(C)OC(N)=C(C#N)C1c1cc2c(cc1Br)OCO2 (stereo not drawn)
i | -0.39 | Cc1ccc2nc(-c3ccc(-c4cccc(Cl)c4)cc3)c(NCc3ccccc3)n2c1
i | -0.17 | COc1ccc(C2NC(=O)CCC2[N+](=O)[O-])c(OC)c1OC (stereo not drawn)
i | -0.64 | COC(=O)c1c(NC(=O)CN2CCN(c3ccccc3Cl)CC2)sc(C)c1C
i | 0.12 | CCCSc1ncccc1C(=O)O
i | 5.8 | Fc1ccc(-c2nc(-c3cccs3)no2)cc1
i | 2.4 | Clc1ccc2[nH]c3c(NCCN4CCOCC4)ncnc3c2c1
i | -0.24 | Cc1ccccc1NS(=O)(=O)c1ccc(C(=O)N2CCN(c3ccccc3O)CC2)cc1
i | 0.66 | Oc1ccccc1CNc1ncc(Br)cc1Br
i | -1.2 | CC(C)(O)C(=O)NNC(=S)Nc1ccc(F)c(Cl)c1
i | -0.07 | Cc1ccc([N+](=O)[O-])c2c1C(N1CCCC1)C(C)(C)O2 (stereo not drawn)
i | 0.67 | O=C(NNC(=O)c1cnccc1C(F)(F)F)c1ccc(Cl)cc1
i | 0.84 | CCOC(=O)Nc1ccc2c(c1)nc(CN1CCOCC1)n2C
i | 0.01 | CC/C(=N\NC(=O)c1nnn(-c2nonc2N)c1CN(C)c1ccccc1)c1ccccc1
i | 1 | Cc1ccc(CN2C(=O)CCC2C(=O)NCCCN2CCC(C)CC2)cc1 (stereo not drawn)
i | -3.2 | Cc1cc(C)cc(C(=O)NCC(=O)OCc2cc([N+](=O)[O-])cc3c2OCOC3)c1
i | 1.4 | COc1cccc(C2=NOC(C(=O)NCc3cccnc3)C2)c1 (stereo not drawn)
i | -1.3 | COc1ccc(N=C(N(C)C)P(=O)(N(C)C)N(C)C)cc1
i | 1.4 | O=C(Nc1cccc(S(=O)(=O)N2CCCCC2)c1)c1cc([N+](=O)[O-])ccc1N1CCOCC1
i | -0.04 | CCn1nc(C)cc1C(=O)NC1CCCc2c1cnn2-c1cc(F)cc(F)c1 (stereo not drawn)
i | -2.5 | CC(C)(C)c1ccc(-c2nnc(SCCN3C(=O)c4ccccc4C3=O)o2)cc1
i | 0.27 | COc1ccc(C2=NCCNC(C(F)(F)F)=C2)cc1
i | -0.7 | O=C(COC(=O)c1ccccc1Br)Nc1nnc(-c2ccccc2)o1
i | 0.72 | Cc1ccc(S(=O)(=O)NCC(=O)OCC(=O)N2CCc3ccccc32)cc1
i | -0.78 | CC1(C)CC(=O)C2=C(C1)N(CCN1CCOCC1)C1=C(C(=O)CC(C)(C)C1)C2c1cccc(Cl)c1
i | 1.8 | COCC(=O)NCCc1nc(-c2ccccc2)cs1
i | 0.67 | Clc1ccc(CNc2ccccc2NCc2ccc(Cl)nc2)cn1
i | 0.03 | CCOC(=O)N1CCC(NC(=O)c2cc(COc3ccccc3SC)on2)CC1
i | -0.02 | CCOC(=O)C1CCN(C(=O)c2ccc3c(Cl)c4c(nc3c2)CCCC4)CC1
i | 0.56 | COc1ccc(NC(C)=O)cc1S(=O)(=O)N1CCN(C(=O)c2ccccc2F)CC1
i | 0.89 | N=c1sccn1CC(=O)Nc1ccccc1-c1ccccc1

2 entries from above, comma-delimited.
canonical_smiles,KCNQ2 inh,KCNQ2 inh baseline
COc1ccc(NC(C)=O)cc1S(=O)(=O)N1CCN(C(=O)c2ccccc2F)CC1,i,0.56
N=c1sccn1CC(=O)Nc1ccccc1-c1ccccc1,i,0.89

(further entries)
KCNQ2 inh | KCNQ2 inh baseline | Compound
i | 2.3 | O=C(O)c1ccccc1-c1ccc(/C=c2\sc3nc4cc(Br)cnc4n3c2=O)o1
i | -1.3 | O=C(NCC1(c2ccccc2)CCCC1)c1cccc(Br)c1
-6.9* | 0.28* | CCN(CC)C(=O)c1cc2c(=O)oc3ccccc3c2s1
i | 0.28 | COCCn1c(NC(=S)NC(=O)C2CC2)cc(=O)[nH]c1=O
i | 0.27 | CC(C)(C)C(=O)/C=C(N)/C=C/c1ccccc1
i | 1.3 | CSCC(C)N1CCC(n2nccc2NC(=O)c2ccc3c(c2)OCO3)CC1 (stereo not drawn)
i | 0.75 | O=C(Nc1cc(N2CCOCC2)ncn1)Nc1cccc2ccccc12
i | 2.7 | CN1CCN(C(=O)CN(c2ccccc2)S(=O)(=O)N(C)C)CC1
i | -0.38 | O=C(COC(=O)CNC(=O)c1ccc(Cl)cc1)Nc1cccc(S(=O)(=O)N2CCCC2)c1
i | 0.22 | COc1ccccc1OCCn1c(CO)nc2ccccc21
i | 0.05 | O=C(NCCCN1CCOCC1)c1cc(-c2ccc(Cl)cc2)on1
i | 0.05 | CCSc1nnc(-c2cc3c(s2)-c2ccccc2CC3)o1
i | -1.3 | Cc1cc(=O)oc2cc(OCC(=O)NCCCN3CCOCC3)c(Cl)cc12
i | -0.08 | CCN(CC)CCNC(=O)C(=O)NCC1OCCN1S(=O)(=O)c1ccc(Cl)cc1 (stereo not drawn)
i | 1 | Cc1cc(C)c2c(n1)SCC(=O)N2CC(=O)NCCC1=CCCCC1
i | 0.38 | COc1ccccc1OCC(=O)Nc1nonc1NC(=O)COc1ccccc1OC
i | -2.3 | COC(=O)CNC(=O)c1cn(-c2ccc(C)c(C)c2)c(=O)c2ccccc12
i | -0.59 | CCN=c1sc2ccccc2n1CC(O)COc1ccccc1 (stereo not drawn)
i | -1.9 | CCCOc1ccc(C(CC(=O)O)NC(=O)Cc2ccccc2)cc1 (stereo not drawn)
i | 2 | O=[N+]([O-])c1ccc(NC(=S)N/C(=N/CS(=O)(=O)c2ccccc2)c2ccccc2)cc1
i | 2.5 | CCOC(=O)C1CCN(Cc2ccc(F)c(F)c2)CC1
i | -0.05 | CCCn1c(NC(=O)CN2C(=O)NC3(CCCC3)C2=O)nc2ccccc21
i | -0.12 | C=CCC(=O)N1CCCC(CNC(=O)c2ccc(-c3ccccc3)cc2)C1 (stereo not drawn)
i | -0.37 | O=C(NCCOc1ccccc1Cl)C(=O)Nc1ccccc1
i | 1.4 | Fc1ccc(/C=N/NC(=S)Nc2cccnc2)cc1
i | -0.78 | Cc1ccc(S(=O)(=O)C2(C(=O)N3CCN(c4cc(C)ccc4C)CC3)CC2)cc1
i | 1.2 | COC(=O)c1ccc(CSCC(=O)Nc2cc(OC)cc(OC)c2)o1
i | -0.79 | CN1CCN(S(=O)(=O)c2cccc(C(=O)NCCOc3ccccc3F)c2)CC1
i | -0.83 | COC(=O)Cc1[nH]c(=O)[nH]c1C(=O)OC
i | -0.16 | O=C(Nc1ccc(Cl)cc1)N1N=CCC1c1ccccc1 (stereo not drawn)
i | 1.7 | COc1cc(C=O)ccc1OCCOCCOc1ccc(Cl)cc1
i | -1.8 | Cc1cccc(Oc2ccc(NC(=O)c3ccccc3C(=O)O)cc2)c1
i | -2.5 | CCOC(=O)c1c(NC(=O)c2ccc(Cl)s2)sc(C)c1C
i | -0.61 | COc1ccc(-c2cc(C3CCNCC3)[nH]n2)cc1
i | -1.2 | COc1cccc2cc(C(=O)N3CC(C)OC(C)C3)c(=O)oc12 (stereo not drawn)
i | 1.1 | COc1ccc(C2C(C(C)=O)=C(C)N=c3s/c(=C\c4cc(C)n(C)c4C)c(=O)n32)c(OC)c1 (stereo not drawn)
i | 0.39 | O=C(CCSc1nnc(-c2ccccc2)o1)N1CCOCC1
i | 0.05 | CC(C)C(=O)N=c1sc2cc(F)cc(F)c2n1C
i | -0.47 | CC(C)c1ccccc1-n1c(SCC(=O)N2CCN(c3ccccc3)CC2)nnc1-c1cccnc1
i | 0.32 | Cc1ccc(-c2nc(CSCC(=O)NCCN3CCN(Cc4ccccc4)CC3)c(C)o2)cc1
i | -0.66 | CCO[C@H]1OC(C(=O)N2CCN(Cc3ccccc3)CC2)=C[C@@H](c2ccccc2)[C@@H]1CCCO
i | 1.3 | O=C1/C(=C\c2ccc(O)cc2)SC(=S)N1c1cccnc1
i | -0.86 | CCCC1CCC(C(=O)n2nc(N)c3cc4ccc(OC)cc4nc32)CC1 (stereo not drawn)
i | 0.04 | O=C(CC(c1ccccc1O)N1CCCCC1)N1CCCCC1 (stereo not drawn)
i | 0.5 | O=C(Oc1ccc2c(c1)OCO2)c1ccc(Br)c(S(=O)(=O)N2CCOCC2)c1
i | 3.1 | O=C1NC(=Nc2ccccc2)S/C1=C/c1cccnc1
i | 0.69 | Cc1ccccc1NC(=O)CN1C(=S)NC(C)(C)CC1C (stereo not drawn)
i | 1.2 | COC(=O)c1ccc(S(=O)(=O)NCc2cccc(OC)c2)n1C
i | 0.04 | O=C(CCNC(=O)C1CCN(S(=O)(=O)c2ccccc2)CC1)NC1CC1
i | -0.34 | O=C(N/C(=C/c1ccccc1)C(=O)N1CCCCC1)c1ccc(Br)o1
i | 0.82 | CC(NCc1ccc([N+](=O)[O-])cc1)C1COc2ccccc2O1 (stereo not drawn)
i | -0.03 | CN(C)CCCNC(=O)C1(O)c2cc(Br)ccc2NC(=O)N1c1ccc(Cl)cc1 (stereo not drawn)
i | -0.4 | COc1cccc(C(=O)OCCCN(C)C)c1
i | 3.7 | CCS(=O)(=O)N1N=C(c2cccc(NS(C)(=O)=O)c2)CC1c1ccc(C)cc1 (stereo not drawn)
i | 1.4 | CC(=O)Nc1ccc(S(=O)(=O)N2CCCC2C(=O)O)cc1 (stereo not drawn)
i | 2.9 | CCN1C(=O)c2ccc(C(=O)Nc3cccc(C(=O)O)c3)cc2C1=O

Next section
KCNQ2 inh | KCNQ2 inh baseline | Compound
i | 0.61 | CCOC(=O)Cc1cc(=O)n2[nH]c(C)c(-c3ccccc3)c2n1
i | -0.51 | CC1CCCC(NC(=O)COC(=O)c2ccc3ccccc3n2)C1C (stereo not drawn)
i | 0.18 | Cc1cccc(/C=N/NC(=O)Cn2nc(C)cc2C)n1
i | -0.12 | CC(=O)c1ccc(C(=O)N2CCC(CO)(Cc3cccc(C(F)(F)F)c3)CC2)cc1
-7.1* | -2.1* | CC(C)=CCc1c(O)cc(O)c2c(=O)c(O[C@@H]3O[C@@H](C)[C@H](O)[C@@H](O)[C@H]3O)c(-c3ccc(O)cc3)oc12
i | 1.7 | CC(CN(C)Cc1ccccc1)OC(=O)c1ccccc1F (stereo not drawn)
i | -0.85 | Cc1cccc(NC(=O)CSc2nnc(CCCCCNC(=O)OC(C)(C)C)o2)c1C
i | 0.73 | CC(=O)c1ccc(OCCCC(=O)NC(C)c2ccc(S(N)(=O)=O)cc2)cc1 (stereo not drawn)
i | -0.46 | O=C(NN=C1c2ccccc2-c2ccccc21)c1ccccn1
i | -0.03 | COCCN(C(=O)Cc1cccs1)C(C(=O)NCc1ccc(OC)cc1)c1ccccc1 (stereo not drawn)
i | 0.08 | O=C(Cn1cnc2ccccc2c1=O)Nc1ccc2c(c1)OCCO2
i | -1.2 | COc1ccc(S(=O)(=O)NCC2CCCN(Cc3cccc(C(C)=O)c3)C2)cc1 (stereo not drawn)
i | 0.11 | CCC(C)N1CCCC1C(=O)Nc1c(C)cc(C)cc1C (stereo not drawn)
i | 1.3 | CCC(c1nnc(SCC(=O)Nc2ccc(C(N)=O)cc2)n1Cc1ccccc1)N(C)C (stereo not drawn)
i | 2.4 | COc1cc(/C=C2/C(=O)N(c3ccccc3)N=C2C)ccc1OS(=O)(=O)c1ccccc1
i | 1.9 | CC(C)C(NC(=O)c1ccco1)C(=O)OCC(=O)c1ccccc1 (stereo not drawn)

Looked up one by one from above, seven records:
KCNQ2 inh | KCNQ2 inh baseline | Compound
i | 2.4 | COc1cc(/C=C2/C(=O)N(c3ccccc3)N=C2C)ccc1OS(=O)(=O)c1ccccc1
i | -0.46 | O=C(NN=C1c2ccccc2-c2ccccc21)c1ccccn1
i | 1.9 | CC(C)C(NC(=O)c1ccco1)C(=O)OCC(=O)c1ccccc1 (stereo not drawn)
i | -1.2 | COc1ccc(S(=O)(=O)NCC2CCCN(Cc3cccc(C(C)=O)c3)C2)cc1 (stereo not drawn)
i | 0.08 | O=C(Cn1cnc2ccccc2c1=O)Nc1ccc2c(c1)OCCO2
i | -0.03 | COCCN(C(=O)Cc1cccs1)C(C(=O)NCc1ccc(OC)cc1)c1ccccc1 (stereo not drawn)
i | 0.11 | CCC(C)N1CCCC1C(=O)Nc1c(C)cc(C)cc1C (stereo not drawn)

(cont.)
KCNQ2 inh | KCNQ2 inh baseline | Compound
i | 0.83 | COc1cc(CC(=O)NNC(=O)c2cc(C)oc2C)cc(OC)c1OC
i | -0.01 | O=C(N/N=C/c1cc(Br)cc(Cl)c1O)c1ccc2c(c1)OCO2
i | 0.04 | CC(C(=O)NCCc1nc2ccccc2[nH]1)n1cc([N+](=O)[O-])cn1 (stereo not drawn)
i | 0.14 | CC1CCN(c2ccc(NC(=O)c3ccc(Br)o3)cc2)CC1
i | -0.41 | COc1ccc(C2NN=C(c3c[nH]c4ccccc34)C2O)cc1 (stereo not drawn)
